Screens (PubChem)
Bead autofluor: compound fluorescence in toxin protease inhibitor counterscreen; compound autofluorescence counterscreen, microsphere flow cytometry; hits give high values; fluorescence intensity (no concentration beside the values); 360,000 tested, 3.1% active; AID 624483;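 active = at least 3 SD above the mean of all compounds, about 16000 in these data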;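 also: 100 nL of 1 mM stock went into each well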
An asterisk follows results filed as active. This is a subset, so the mix of outcomes need not match the whole.

item	structure	Bead autofluor
1	CC(=O)NC(C)(c1ccccc1)c1nc(-c2cccc(C(F)(F)F)c2)cs1 (centres undefined)	3836
2	CCCCc1cc(=O)oc2cc(OC(C)C(=O)NCCN3CCOCC3)ccc12 (centres undefined)	2908
3	CC(C)(C)C1CCSC2=NCCC[C@]2(c2ccccc2)C1 (some centres undefined)	5303
4	O=C1NN=C2CCCCCC12 (centres undefined)	2952
5	Nn1c(SCC(=O)NC2CCCCCC2)nnc1-c1ccco1	3790
6	COc1ccc(CCN2C(=O)c3ccccc3C2c2nnnn2-c2ccc3c(c2)OCCO3)cc1OC (centres undefined)	6323
7	CN(C)CCN(C)c1cc2c(c3c1ccn3C)C1CCC2O1 (centres undefined)	5705
8	Cc1ccc(-c2nc3c(Cl)cc(C(F)(F)F)cn3c2Cc2ccccc2C(F)(F)F)cc1	6023

(list continues)
item	structure	Bead autofluor
9	CCCOc1ccc(C(=O)Nc2ccc(N3CCOCC3)cc2N2CCOCC2)cc1OCC	2875
10	CCCCC(=O)N(C)c1c(CC)nc2c(OCC(=O)N3CCOCC3)cccn12	3511
11	Cc1ccc(-c2csc(C(C)(O)c3ccc(F)c(F)c3)n2)cc1C (centres undefined)	3982
12	CC(C)C[C@H]1CNC(=S)N1C[C@H]1CCCN1C[C@H](CC(C)C)N1C[C@H](Cc2ccc(O)cc2)N(CCc2ccccc2)C1=S	6804
13	Cc1ccc2ccccc2c1C(O)c1ncc(-c2ccc(C(F)(F)F)cc2)[nH]1 (centres undefined)	4018
14	Cc1ccc(OCCC(=O)NNC(=O)c2ccncc2)cc1	4236
15	C[C@H]1CN(c2ccc(Br)cc2)C(=O)[C@@H]1CC(=O)Nc1ccccc1	3654
16	CCN(CC)C(=O)C1=C(C)N(Cc2ccccc2)C(=O)C(CC(=O)NCC2CCCCC2)C1 (centres undefined)	3873

Next part:
item	structure	Bead autofluor
17	N#Cc1c(N)[nH]c(C(=O)c2ccccc2)c1-c1ccccc1Br	6017
18	CC1C(=O)N(Cc2cn(CCC3OCCCO3)nn2)CCS(=O)(=O)N1Cc1ccc(-c2ccc(Cl)c(Cl)c2)cc1 (centres undefined)	3705
19	CC(C)NC(=O)C1(C)CCN1C(=O)c1c(F)cccc1F (centres undefined)	2855
20	O=C(Nc1ccc(Oc2ccccc2)cc1)c1csc(COCCO)n1	4067
21	O=C(NCc1ccccc1Cl)c1csc(COCCO)n1	3690
22	CCc1ccc(C=C2SC(=S)N(CCCC(=O)Nc3ccc(C(=O)O)cc3)C2=O)cc1	3725
23	Cc1ccc(S(=O)(=O)N2C[C@]3(O)C[C@@H]4C(=O)N(c5ccccc5)C(=O)[C@@H]4C[C@]3(OC(=O)Nc3c(C)noc3C)C2)cc1	3630
24	O=C(c1ccccc1)c1ccsc1C(=O)c1ccccc1	2546

Next section:
item	structure	Bead autofluor
25	CCCNC(=O)C1(C)CCN(C(=O)c2oc3ccccc3c2C)C1 (centres undefined)	3839
26	COc1ccc(OC)c(NC(=O)Nc2nnc([C@@H]3O[C@H](CO)[C@@H](O)[C@H]3O)s2)c1	3990
27	O=C(Nc1ccccc1)C1Cc2c(-c3ccc(Cl)cc3)ccnc2O1 (centres undefined)	2570
28	NC(c1csc(Nc2nncc3ccccc23)n1)c1ccccc1Cl (centres undefined)	3459
29	CC(C)c1ccc(NC(=O)Nc2nc(C(N)c3ccccc3Cl)cs2)cc1 (centres undefined)	3546
30	CCOC(=O)[C@]12Cc3cc(OC)ccc3[C@H]1N(C1CCCCC1)C(=O)c1ccccc12	5871
31	C[C@@H]1CN([C@@H](C)CO)C(=O)c2cc(NC(=O)C3CCCCC3)ccc2O[C@@H](C)CCCCO[C@H]1CN(C)S(=O)(=O)c1ccc(Cl)cc1	3618
32	C[C@@H]1CN([C@@H](C)CO)S(=O)(=O)c2ccc(Br)cc2O[C@@H]1CN(C)Cc1ccccn1	2833

(list continues)
item	structure	Bead autofluor
33	CCCNC(=O)C1(C)CCCN(C(=O)Cc2cccc(OC)c2)C1 (centres undefined)	3711
34	CC(=O)c1ccc(-c2cnc3c(NC=O)cc(-c4ccc(C(=O)N5CCOCC5)cc4)cn23)cc1	3755
35	CCOC(=O)[C@]12CCCC=C1N(Cc1ccco1)C(=O)[C@H](CC(=O)N1CCOCC1)C2	5928
36	COCCNC(=O)C1(C)CCCN(C(=O)c2ccco2)C1 (centres undefined)	3763
37	CC1(C(=O)NCc2cccs2)CCN1C(=O)Cc1cccc2ccccc12 (centres undefined)	3897
38	COc1cc(NC(=O)c2ccc(-c3cccnc3)c3ccoc23)cc(OC)c1OC	3738
39	O=C(c1[nH]c(C(F)(F)F)nc1-c1ccccc1)N1CCC2(CC1)C(=O)NCN2c1ccccc1	5171
40	CCCCNC(=O)C1(C)CCN1C(=O)c1ccncc1 (centres undefined)	3661

Following part
item	structure	Bead autofluor
41	CCCCc1c(-c2ccc(OC)c(OC)c2)ncn1CCc1ccccc1OC	6379
42	O=C(c1[nH]c(C(F)(F)F)nc1-c1ccccc1)N1CCCCC1	4169
43	COc1cccc(-c2cc3nc(NCCCN(C)C)n(C)c(=O)c3s2)c1	3541
44	Cc1cccc(C)c1NC(=O)CN(C)C(=O)c1ccc(OCc2ccccc2)cc1	3679
45	O=C(/C=C/[C@H]1O[C@@H](n2cnc3c(NC(=O)c4ccccc4)ncnc32)[C@H](O)[C@@H]1O)N[C@@H](CO)Cc1c[nH]c2ccccc12	5498
46	CC1(C(=O)NS(=O)(=O)c2cccc(F)c2)CCN1C(=O)Cc1cccc2ccccc12 (centres undefined)	3285
47	COc1ccccc1-c1cc2nc(-c3ccccc3)cc(N3CCN(C(=O)c4ccoc4)CC3)n2n1	3639
48	CC(CC(=O)Nc1ccc2c(c1)c(=O)n(C)n2-c1ccccc1F)c1ccccc1 (centres undefined)	3659

Other structures follow:
item	structure	Bead autofluor
49	CC1(C)OC(=O)C2=C(C[C@@H](CCc3ccccc3)O[C@H]2CCc2cccc(Cl)c2)O1	5802
50	O=C(c1ncn2c1c(=O)[nH]c1ccccc12)N1CCc2ccccc2C1	3875
51	CCNC(=O)C1(C)CCCN(Cc2cccc3c(OC)cc(C(=O)OCC)cc23)C1 (centres undefined)	3706
52	CCC(=O)N(C)C[C@H]1Oc2ncc(C#Cc3ccncc3)cc2C(=O)N([C@@H](C)CO)C[C@@H]1C	3376
53	C[C@H](CO)N1C[C@H](C)[C@@H](CN(C)S(=O)(=O)c2ccc(Oc3ccccc3)cc2)OCc2cn(nn2)CCCC1=O	3518
54	CCCc1nc2cc(C)c(Br)c(C)n2c1Cc1ccsc1	6214
55	COCOc1ccc(-c2ncc(OC)nc2NC(=O)c2cc(C)oc2C)cc1	4484
56	O=C(Nc1oc2ccccc2c(=O)c1-c1ccccc1)c1ccco1	3898

Remaining list, next part:
item	structure	Bead autofluor
57	CC(C)(c1ccc(O)cc1)c1ccc(O)c(C(=O)O)c1	2790
58	OC(Cc1ccccc1)c1ncc(-c2ccc3ccccc3c2)[nH]1 (centres undefined)	3606
59	CCc1nc2ccc(C(=O)Nc3cc(-c4ccccc4)ccc3OC)cn2c1N(C)CCC(C)C	4004
60	COc1ccc(OC)c(NC(=O)C2(C)CCN2Cc2ccccc2Cl)c1 (centres undefined)	3031
61	Cn1c(Oc2ccncc2)nc2cc(-c3ccsc3)sc2c1=O	3412
62	CCC(CC)C(=O)N(C)c1c(C)nc2c(OCc3cccc(OC)c3)cccn12	4011
63	CCCCCCN1CCN(C2CN(Cc3cn(Cc4ccc(F)cc4)nn3)S(=O)(=O)C2)CC1 (centres undefined)	6158
64	CC1(C)CC(Cc2ccc(C(=O)c3ccccc3)cc2)N(C(=O)OC(C)(C)C)N1 (centres undefined)	3584

Following part
item	structure	Bead autofluor
65	COC(=O)[C@H](CC(C)C)NC(=O)CC[C@H]1O[C@@H](n2ccc(=O)[nH]c2=O)[C@H](O)[C@@H]1O	6545
66	COc1cccc(CN2CCC2(C)C(=O)Nc2cccc3cccnc23)c1OC (centres undefined)	3846
67	O=C(COC(=O)c1cc(Br)cc(Br)c1O)NC12CC3CC(CC(C3)C1)C2	3292
68	CC(C)Nc1nc(NCCOc2ccccc2Cl)c2sccc2n1	4087
69	O=C(O)C1CCCN(C(=O)/C=C/c2ccccc2)CC1 (centres undefined)	2848
70	COc1ccc(CN2C(=O)C(CC(=O)NCCCCc3ccccc3)CC(C(=O)N3CCOCC3)=C2C)cc1 (centres undefined)	3628
71	COc1ccc(C(=O)N2CCCCC2c2cc(C(=O)NCc3ccccc3)no2)cc1 (centres undefined)	3357
72	CC(C)(C)S(=O)(=O)/C(C#N)=C/c1cccn1S(=O)(=O)c1ccccc1	4102

Five records drawn at random from the list so far:
item	structure	Bead autofluor
72	CC(C)(C)S(=O)(=O)/C(C#N)=C/c1cccn1S(=O)(=O)c1ccccc1	4102
67	O=C(COC(=O)c1cc(Br)cc(Br)c1O)NC12CC3CC(CC(C3)C1)C2	3292
70	COc1ccc(CN2C(=O)C(CC(=O)NCCCCc3ccccc3)CC(C(=O)N3CCOCC3)=C2C)cc1 (centres undefined)	3628
65	COC(=O)[C@H](CC(C)C)NC(=O)CC[C@H]1O[C@@H](n2ccc(=O)[nH]c2=O)[C@H](O)[C@@H]1O	6545
71	COc1ccc(C(=O)N2CCCCC2c2cc(C(=O)NCc3ccccc3)no2)cc1 (centres undefined)	3357

Additional structures:
item	structure	Bead autofluor
73	C[C@@H](NC(=O)[C@@H]1CCCN1C(=O)[C@@H]1CCCN1C(=O)c1ccccc1)c1ccccc1	4334
74	CCCC[C@@H]1CNC(=O)C(=O)N1CCc1cccc(F)c1	4110
75	C[C@@H]1CN([C@@H](C)CO)C(=O)c2cc(C#Cc3cccc(F)c3)cnc2O[C@H]1CN(C)C(=O)C1CCCCC1	3614
76	Nc1ccc2c3c(ccc([N+](=O)[O-])c13)CC2	3681
77	O=C(CNC(=O)c1ccc(Br)cc1)OC1CCOC1=O (centres undefined)	3157
78	COc1ccc([C@@H]2C[C@H]3[C@@H](CN2S(=O)(=O)c2ccccc2)C(=O)C[C@@H](c2ccc(OC)cc2)N3S(=O)(=O)c2ccccc2)cc1	5412
79	CCOC(=O)N(C)c1c(CC)nc2c(OCc3ccc(OC(F)F)cc3)cccn12	3635
80	CC(C)C[C@H]1CN(CCCC[C@H]2CNC(=O)C(=O)N2CCc2ccc(O)cc2)C(=O)C(=O)N1CCc1ccccc1	4788

Some of these compounds in order of molecular weight, lowest first:
item	structure	Bead autofluor
76	Nc1ccc2c3c(ccc([N+](=O)[O-])c13)CC2	3681
79	CCOC(=O)N(C)c1c(CC)nc2c(OCc3ccc(OC(F)F)cc3)cccn12	3635
75	C[C@@H]1CN([C@@H](C)CO)C(=O)c2cc(C#Cc3cccc(F)c3)cnc2O[C@H]1CN(C)C(=O)C1CCCCC1	3614

The results go on.
item	structure	Bead autofluor
81	CCCCN1C(=O)C(CC(=O)NC2CCCCC2)CC(C(=O)N2CCCCCC2)=C1C (centres undefined)	4442
82	Cc1cccc(-c2ccc3[nH]c4c(c3c2)CCN2C[C@@H]([C@H](C)O)[C@@H](N(C)C(=O)NC3CCCCC3)C[C@@H]42)c1	5585
83	COC(=O)c1csc(-c2ccc(CO)o2)n1	6238
84	O=C(Nc1nnc([C@H]2C[C@H](O)[C@@H](CO)O2)s1)Nc1cccc(Cl)c1Cl	3679
85	O[C@H]1CN(CC2CCCCC2)[C@@H](c2ccc(Cl)cc2)C[C@@H]1n1cc(C2CC2)nn1	3907
86	N#CCCN(C(=O)COC(=O)c1ccc(Cl)nc1)c1ccc2c(c1)OCCO2	3703
87	O=C(c1ccc(-n2cncn2)c2ccoc12)N1CCOCC1	3385
88	CC(C)C[C@H]1CN([C@@H](CC(C)C)CN2CCC[C@H]2CN2C(=O)C(=O)NC[C@@H]2Cc2ccc(O)cc2)C(=O)C(=O)N1CC1CCCCC1	5229

(list continues)
item	structure	Bead autofluor
89	COC(=O)CCCn1cc(CN2CC(N3CCN(Cc4cccc(C)c4)CC3)CS2(=O)=O)nn1 (centres undefined)	5051
90	CC(C)S(=O)(=O)N1Cc2ccccc2-n2nncc2C1	3160
91	CCCCn1nnnc1C(c1cc2ccccc2o1)N1CCN(c2c(C)cccc2C)CC1 (centres undefined)	5637
92	CC(=O)c1cccc(-c2ccnc3c2CC(C(=O)Nc2ccc(F)c(Cl)c2)O3)c1 (centres undefined)	3278
93	NNC(=O)c1nc2ccccc2s1	3445
94	CCN(CC)C(=O)C1=C(C)N(Cc2ccccc2)C(=O)C(CC(=O)NCc2ccco2)C1 (centres undefined)	3690
95	Cc1noc(C)c1S(=O)(=O)NC(=O)C1(C)CCN1C(=O)c1ccccc1CCc1ccccc1 (centres undefined)	3369
96	Cc1ccc(F)cc1-c1nc(NC(C)C)nc2cc(-c3ccccc3)sc12	3841

More structures follow.
item	structure	Bead autofluor
97	COc1ncnc2c1ncn2CCCNCCN1CCOCC1	3374
98	CC1(C(=O)NS(=O)(=O)c2ccc(F)cc2F)CCN1C(=O)Cc1cccc2ccccc12 (centres undefined)	3555
99	O=C(NCc1ccccn1)[C@@H]1CCCN1C(=O)[C@@H]1CCCN1C(=O)c1ccccc1	5747
100	CN(C1=NS(=O)(=O)c2ccccc21)c1ccc(OC(=O)c2ccccc2F)cc1	3964
101	COc1cc(C(=O)N2CCN(c3cccc(Cl)c3)CC2)ccc1OCC(=O)N1CCOCC1	3839
102	FC(F)(F)c1ccc(-c2ccc3c(c2)CNCc2cnnn2-3)cc1	6074
103	Cc1cn([C@H]2C[C@H](O)[C@@H](CNCc3cnc(N4CCOCC4)nc3)O2)c(=O)[nH]c1=O	3351
104	NS(=O)(=O)c1ccc(CCNc2ccn3nc(-c4cccc(C(F)(F)F)c4)cc3n2)cc1	3681

Going on with the list:
item	structure	Bead autofluor
105	CCCCCC(=O)N1C[C@H](O)[C@@H](n2cc(COC(=O)c3ccccc3)nn2)C[C@@H]1c1ccc(OC)cc1	3493
106	CC(=O)Nc1ccc(S(=O)(=O)N(C)CC(=O)OC(C)C(=O)NC2(C#N)CCCCC2)cc1 (centres undefined)	3134
107	CC1(C(=O)NS(=O)(=O)c2ccccc2)CCN1C(=O)Cc1ccccc1 (centres undefined)	2732
108	C#CCNC(=O)C[C@@H]1C[C@@]2(C(=O)OCC)CCC=C2N(Cc2ccco2)C1=O	5494
109	Cc1ccc(NC(=O)c2nc[nH]c2C(=O)N(C)CCO)cc1	3940
110	CCO/C(C)=N/Oc1cc(OC)cc(OC)c1	5225
111	O=C(O)C1C(c2ccccc2)=C1c1ccc(Br)cc1 (centres undefined)	3455
112	COc1cc(-c2nnc(NC(=O)CS(=O)(=O)c3ccc(Cl)cc3)o2)cc(OC)c1OC	3017
